From PubChem
2A firefly: FMDV 2A StopGo reporter, firefly signal | 120,000 tested, 0.23% active | HEK cells with a luciferase reporter of 2A StopGo recoding | Potency, µM (doses to about 57.5 µM), for inactives: at the highest dose signal change, negative = less light; active = well fitted falling curve with a large enough effect; inconclusive = small, poorly fitted or top-dose-only effect; inactive = no such curve, though single readings can be large or run the other way; also: nearly all actives have a fitted effect of over 60% in size; overnight with compound
StopGo RLuc: FMDV 2A StopGo reporter, Renilla signal | HEK cells with a luciferase reporter of 2A StopGo recoding | 120,000 tested, 0.32% active | AID 1745857 | Potency, µM (highest dose often 57.5 µM), inactives show top-dose signal change, negative = less light; active means well fitted falling curve with a large enough effect; inconclusive means small, poorly fitted or top-dose-only effect; inactive means no such curve, though single readings can be large or run the other way; also: nearly all actives have a fitted effect of over 55% in size; overnight with compound
The depositor's hits bear a star; ? = inconclusive; & = joins results of further samples; [ ] = remark or other dose. % is scaled to controls: 0 for no effect and ±100 for the full control effect; potency is read from the fitted curve at half-maximal effect.

1	CCCCCOc1ccc(/C=C/C(=O)O)cc1
2	CCc1ccc(C(=O)NCC(C)C)o1
3	COc1cccc(NC(=O)C2CCCN(c3ncnc4onc(-c5ccc(F)cc5)c34)C2)c1 (centres undefined)
4	Cc1nc2ccc(C(=O)N(C)Cc3ccc(C(N)=O)cc3)cc2nc1C
5	O=C(CN1C(=O)NC(Cc2c[nH]c3ccccc23)C1=O)Nc1ccccc1F (centres undefined)
6	CCOC(=O)c1ccc(NC(=O)CC2Nc3ccccc3NC2=O)cc1 (centres undefined)
Assay by compound | 1 | 2 | 3 | 4 | 5 | 6
2A firefly | 0.0% | 12.7% | 23.8% | 32.8%[activator] | 106.2%[activator] | 0.9%
StopGo RLuc | -2.8%[1.06 µM] | -6.0%[1.06 µM] | -6.3% | -1.8% | 26.3% | -9.1%

7	CCc1cc2c(N3CCCC(C(=O)NCc4ccc(F)cc4)C3)ncnc2s1 (centres undefined)
8	CCc1ccccc1NC(=O)C1CCCN(S(=O)(=O)c2cccc3nsnc23)C1 (centres undefined)
9	Cc1c(C(=O)NCCN(C)C)sc2nc3n(c(=O)c12)CCC3
10	Cc1ccc(Nc2c(-c3c[nH]c4ccccc34)nc3ccccn23)cc1
11	COc1ccc(Cl)cc1S(=O)(=O)NCc1ccc2c(c1)CCN2C(=O)c1cccc(C)c1
12	Cc1cc(=O)oc2cc(OCc3nc(-c4cccc(Cl)c4)no3)ccc12
Assay by compound | 7 | 8 | 9 | 10 | 11 | 12
2A firefly | -17.8% | -16.6% | -21.2% | 102.8%[activator] | ? | 1.5%
StopGo RLuc | -13.9% | -2.9% | -16.8% | 0.3% | -12.8% | -6.2%

13	CCOc1ccccc1OCCCn1c(-c2ccc(Cl)cc2)nc2ccccc2c1=O
14	Cc1cn2c(=O)cc(COc3ccccc3NC(=O)c3ccccc3C)nc2s1
15	CCOc1ccc(NC(=O)C2CCN(S(=O)(=O)c3ccc4c(c3)oc(=O)n4C)CC2)cc1
16	COc1ccc(NC(=O)C2=C(C)Nc3ncnn3C2c2ccc(O)cc2)cc1 (centres undefined)
17	CCn1cnc2c1c(=O)n(CC(=O)NCc1cccs1)c(=O)n2Cc1ccccc1
18	O=C(CSc1nc2cc([N+](=O)[O-])ccc2o1)Nc1ccc(F)cc1
Assay by compound | 13 | 14 | 15 | 16 | 17 | 18
2A firefly | 40.4%[activator] | -8.9% | -25.6% | 16.9% | -6.3% | 70.9%[activator]
StopGo RLuc | 13.3% | -9.9% | -11.5% | 10.7% | -3.5% | 4.7%

19	COc1ccc(CNC(=O)c2ccc(-c3nc(CSc4ccccc4)c(C)o3)cc2)c(OC)c1
20	Cc1ccc(Cn2c(=O)c3cccnc3n(CC(=O)Nc3cccc(C(F)(F)F)c3)c2=O)cc1
21	CCOc1cccc(CC(=O)N2CCc3c([nH]c4ccccc34)C2c2ccc(SC)cc2)c1OCC (centres undefined)
22	Cc1cc2oc(=O)cc(CN3CCC(C)CC3)c2c(C)c1Cl
23	Cc1cccc(C(=O)Nc2ccc(OCc3cc(=O)n4ccc(C)cc4n3)cc2)c1
24	Cc1ccccc1NC(=O)Nc1nnc(N2CCCCCC2)s1
Assay by compound | 19 | 20 | 21 | 22 | 23 | 24
2A firefly | -12.3% | -8.9% | -18.5% | 0.0% | -7.4% | 3.7%
StopGo RLuc | -4.0% | -15.1% | -1.5% | -2.2% | -6.7% | -2.1%

25	COc1ccc(NC(=O)c2nc(S(C)(=O)=O)ncc2N(Cc2ccc(C)cc2)Cc2ccco2)cc1Cl
26	Cc1ccc(F)cc1NC(=O)CCc1ncc(-c2ccc(F)cc2)o1
27	CCN(CC)CCNC(=O)c1cc(S(C)(=O)=O)ccc1OC
28	CC1CCCCN1C(=O)c1ccc2c(c1)N(Cc1cccc(Cl)c1)C(=O)c1ccccc1S2=O (centres undefined)
29	O=C(NC1CC1)c1cc(SCC(=O)N2CCOCC2)nc2ccccc12
30	COc1ccc(Nc2oc(-c3ccccc3Cl)nc2C#N)cc1
Assay by compound | 25 | 26 | 27 | 28 | 29 | 30
2A firefly | -9.5% | 10.1% | -14.0% | -8.1% | -2.3% | 116.4%[activator]
StopGo RLuc | -13.0% | -1.3% | -10.8% | 35.8%[activator] | -5.8% | 51.0%[activator]

31	CCCCn1cc(S(=O)(=O)c2cccc(C)c2)c(=O)c2cc(F)c(N3CCOCC3)cc21
32	Cc1ccsc1C(=O)N(Cc1ccccn1)C1CC1
33	CC(=O)Nc1cc(C(=O)NCCSC2CCCC2)ccc1C
34	CCc1ccccc1NC(=O)c1ccc2c(SCC(=O)O)c3c(nc2c1)CCC3
35	CS(=O)(=O)N1CCCC(C(=O)NCc2ccc(OCC3CC3)nc2)C1 (centres undefined)
36	CC(=O)Oc1ccc(C2C(C#N)=C(N)OC3=C2C(=O)CC(C)(C)C3)cc1 (centres undefined)
Assay by compound | 31 | 32 | 33 | 34 | 35 | 36
2A firefly | -0.9% | 6.3% | 0.0% | 56.8%[activator] | -3.2% | -10.5%
StopGo RLuc | 10.7% | -0.5% | 12.3% | -8.8% | -6.4% | -3.9%

Part of the list above, with two lines to a compound:
Values run as follows: 2A firefly	StopGo RLuc
(32) Cc1ccsc1C(=O)N(Cc1ccccn1)C1CC1
  6.3%	-0.5%
(33) CC(=O)Nc1cc(C(=O)NCCSC2CCCC2)ccc1C
  0.0%	12.3%
(34) CCc1ccccc1NC(=O)c1ccc2c(SCC(=O)O)c3c(nc2c1)CCC3
  56.8%[activator]	-8.8%
(36) CC(=O)Oc1ccc(C2C(C#N)=C(N)OC3=C2C(=O)CC(C)(C)C3)cc1 (centres undefined)
  -10.5%	-3.9%

Continuation.
37	CCOc1ccccc1CNC(=O)c1oc2c(c1C)-c1[nH]ncc1CC2
38	O=C(Nc1nc2c(s1)CCCC2)c1ccccc1F
39	COc1ccc(C(=O)ON=C2CCCCC2)cc1Br
40	O=C(Nc1ccc(-c2cnc(C3CC3)o2)cc1)c1cccc(F)c1
41	CCOc1ccc(-c2cn3c(n2)sc2cc(C(=O)NCCCN(CC)CC)ccc23)cc1
42	O=C(NCc1cccs1)c1cccc2ccccc12
Assay by compound | 37 | 38 | 39 | 40 | 41 | 42
2A firefly | 1.6% | -77.6% | 3.1% | 141.9%[activator] | 3.0% | 126.7%[activator]
StopGo RLuc | -2.1% | 32.1%[activator] | -1.6% | 8.5% | -12.8% | 101.6%[activator]

43	COc1ccc(C(=O)Nc2cc(-c3ccccc3)nn2-c2ccccc2)cc1
44	Cc1ccc(-c2cc3ncc4c(n3n2)-c2ccccc2OC4)cc1
45	CCN(C(=O)COc1ncnc2ccccc12)c1cccc2ccccc12
46	Cc1cc(SCC(=O)NC2CCS(=O)(=O)C2)nc2c(C)cccc12 (centres undefined)
47	O=C(c1ccccc1)C1CCN(c2ncc(C(F)(F)F)cc2Cl)CC1
48	CC1CCc2c(nc3ccc4ccccc4c3c2-c2ccccc2O)C1 (centres undefined)
Assay by compound | 43 | 44 | 45 | 46 | 47 | 48
2A firefly | 30.0%[activator] | 122.3%&194.8%[activator] | 94.0%[activator] | -10.4% | 0.0% | 14.8%
StopGo RLuc | 19.8% | -8.2%&2.4% | 0.0% | -10.7% | 1.1% | 5.8%

49	Cc1ccc(C)c(Cn2c(-c3cccs3)nc3ccccc32)c1
50	CN(C)C(=O)c1ccc2c(c1)N(CC(=O)NCc1ccc(F)cc1)C(=O)C1CCCCN21 (centres undefined)
51	CNS(=O)(=O)c1cn(CC(=O)N2CCN(c3ccc(Cl)cc3)CC2)cc1S(=O)(=O)NC
52	COC(=O)COc1ccc2c3c(c(=O)oc2c1)CCC3
53	Cc1ccc(NC(=O)CN2C(=O)COc3ccc(S(=O)(=O)N4CCCCCC4)cc32)cc1Cl
54	Cc1nc(CN2CCN(S(=O)(=O)c3cc(Cl)ccc3Cl)CC2)cs1
Assay by compound | 49 | 50 | 51 | 52 | 53 | 54
2A firefly | -1.8% | -8.2% | -13.2% | 9.6% | -20.0% | -20.9%
StopGo RLuc | -7.0% | 9.9% | 3.6% | 19.9% | 4.5% | -11.1%

Gathered by group: the entries above containing a COOH group (2)
1	CCCCCOc1ccc(/C=C/C(=O)O)cc1
34	CCc1ccccc1NC(=O)c1ccc2c(SCC(=O)O)c3c(nc2c1)CCC3
Assay by compound | 1 | 34
2A firefly | 0.0% | 56.8%[activator]
StopGo RLuc | -2.8%[1.06 µM] | -8.8%

Next compounds follow:
55	O=S1(=O)c2ccc(N3CCCC3)cc2Oc2ccccc2CN1Cc1cn(Cc2ccc(Cl)cc2)nn1
56	CCCCCCn1c(SCCC(=O)O)nc2c1c(=O)[nH]c(=O)n2C
57	CC1CCN(C(=O)c2cc3c(F)cccc3s2)CC1
58	FC(F)(F)c1cccc2c(Cl)ccnc12
59	COc1ccccc1OCC(=O)Nc1ccc2oc(C)nc2c1
60	COc1ccc(-c2cc(C)no2)cc1S(=O)(=O)N1CCOc2ccc(Cl)cc21
Assay by compound | 55 | 56 | 57 | 58 | 59 | 60
2A firefly | -3.8% | 18.0% | 0.0% | -7.0% | 126.8%[activator] | -5.0%
StopGo RLuc | 116.5%[activator] | 7.1% | 0.0% | -7.5% | 72.5%[activator] | 99.4%[activator]

61	CC(=O)c1ccc(NC(=O)Cn2c(=O)oc3cc(S(=O)(=O)N4CCCCC4)ccc32)cc1
62	O=C(COc1ncnc2ccc(Br)cc12)N1CCCCC1
63	Cc1ccc(-n2ncc(C(=O)NCc3ccco3)c2C2CCN(C(=O)OC(C)(C)C)CC2)c(C)c1
64	COc1ccc(S(=O)(=O)N2CCOCC2)cc1NC(=O)c1cc2c(C)nn(CC(C)C)c2s1
65	CC(C)(C)NC(=O)/C(=C\c1ccc(-c2ccc(Cl)cc2Cl)o1)NC(=O)c1ccccc1
66	N#Cc1ccccc1COc1ccc(C(=O)c2ccc(F)cc2)cc1
Assay by compound | 61 | 62 | 63 | 64 | 65 | 66
2A firefly | -3.0% | 55.1%[activator] | -20.8% | -9.0% | -0.8% | 37.6%[activator]
StopGo RLuc | 8.5% | 5.8% | 34.5%[activator] | -5.1% | -3.8% | -14.9%[1.06 µM]

67	COc1ccc(-c2ccc(=O)n(CC(=O)N3CCCC3)n2)c(F)c1
68	CCOc1ccc(C(=O)CC2(O)C(=O)Nc3ccccc32)cc1 (centres undefined)
69	CCN1CCC(N(Cc2ccc3c(c2)OCO3)C(=O)Nc2cccc(C)c2C)CC1
70	COc1ccc(-c2ocnc2C(=O)Nc2ccc(Br)cc2F)cc1
71	Cc1ccc(CN(C)C(=O)c2sc3nc(C(C)(C)C)nc(C)c3c2C)o1
72	CC(=O)c1ccc(NC(=O)CC2Nc3cc(C)c(C)cc3NC2=O)cc1 (centres undefined)
Assay by compound | 67 | 68 | 69 | 70 | 71 | 72
2A firefly | -0.7% | 0.0% | -18.1% | 2.6% | 6.5% | -4.7%
StopGo RLuc | -15.5% | 25.0% | -7.4% | -5.1% | 27.0% | 18.0%

73	CN1C(=O)NC(=O)C(C)(C2=CCCCC2)C1=O (centres undefined)
74	CCCCC(=O)Nc1c(S(=O)(=O)c2ccccc2)c(C)c(C)n1CCOC
75	CCCNc1c(NC(=O)c2ccc(OC)c(OC)c2)c(=O)oc2ccccc12
76	CCC1CCCCN1C(=O)CCn1cnc2c1c(=O)n(C)c(=O)n2C (centres undefined)
77	CCc1nnsc1C(=O)N(C)CCOc1cc(C)cc(C)c1
78	COc1ccc(NC(=O)COc2ccc3c(C)c(C)c(=O)oc3c2)cc1OC
Assay by compound | 73 | 74 | 75 | 76 | 77 | 78
2A firefly | 7.9% | -9.2% | 9.9% | 123.6%[activator] | 26.9% | 4.0%
StopGo RLuc | 14.3% | 86.1%[activator] | 1.3% | -3.7% | 15.6% | 4.3%

Single entries from the results shown.
cpd 5 @ 2A firefly = 106.2%[activator]
cpd 41 @ StopGo RLuc = -12.8%
cpd 7 @ 2A firefly = -17.8%
cpd 30 @ 2A firefly = 116.4%[activator]
cpd 42 @ 2A firefly = 126.7%[activator]
cpd 14 @ StopGo RLuc = -9.9%
cpd 53 @ StopGo RLuc = 4.5%

Next part.
79	N#CC1=C(N)Oc2nc(SCc3ccccc3Cl)nc(N)c2C1c1ccc(F)cc1 (centres undefined)
80	COc1ccccc1CCNC(=O)c1cccc(N2CCCCS2(=O)=O)c1
81	COc1ccc(-c2cn[nH]c2-c2ccc(OCCN3CCCCC3)cc2O)cc1
82	CC(C)C(=O)N1N=C(c2ccc(NS(C)(=O)=O)cc2)CC1c1ccc(F)cc1 (centres undefined)
83	CN(C)CCCN(Cc1ccccc1)C(=O)c1nn(C)c(=O)c2ccccc12
84	Cc1cc(C)c(NC(=O)CCNC(=O)Cc2ccccc2)c(C)c1
Assay by compound | 79 | 80 | 81 | 82 | 83 | 84
2A firefly | ? | 45.1%[activator] | -17.3% | 9.6% | 3.7% | 9.7%
StopGo RLuc | ? | 9.8% | -22.2% | 10.6% | -13.9% | 4.6%

85	Cc1ccc(C)c(OCCCC(C)(C)C(=O)O)c1
86	Cc1cc(C)c(C(=O)CCCC(=O)O)c(C)c1
87	COc1cccc(-c2nc(CS(=O)(=O)CC(=O)Nc3ccc(C)c(Cl)c3)c(C)o2)c1
88	NC(=S)N/N=C1\CCCc2ccccc21
89	O=c1cc(CCl)c2c(ccc3ccccc32)o1
90	N#CCCN(CCC#N)C(=O)c1cccs1
91	CN1CCOC(CNC(=O)Cc2ccccc2F)C1 (centres undefined)
92	COc1ccc(N2CCN(C(=O)Cc3c(C(=O)O)c(C)cn3C)CC2)cc1
Assay by compound | 85 | 86 | 87 | 88 | 89 | 90 | 91 | 92
2A firefly | -15.1% | 0.1% | 0.0% | 19.5% | 32.7%[activator] | 17.2% | -6.7% | -24.2%
StopGo RLuc | -16.2% | 6.0% | -19.3% | -13.4% | 24.7% | -2.7% | -14.9% | -21.3%

Some of the compounds tested (hit frequency here may not be typical).
